Screening data: PubChem, Johns Hopkins Ion Channel Center
KCNQ2 enhance = potentiators of rat KCNQ2 potassium channel; AID 2239; B-score at 10 µM; O88943; 310,000 tested, 0.54% active; CHO-K1 KCNQ2, FluxOR thallium flux fluorescence; active compounds read high;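 active means fluorescence ratio B-score at least 3 SD of library B-scores, with initial fluorescence B-score within 3 SD, cut at about 5.3 in these data; same plate scores as AID 2156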;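 further: B-score of peak minus minimum over baseline fluorescence ratio after K+ and Tl+ stimulus; positive B-score means potentiation of KCNQ2 with more thallium influx and brighter signal; only the inactives scoring about 0 or higher are listed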
Target sequence (O88943 whole entry, looked up): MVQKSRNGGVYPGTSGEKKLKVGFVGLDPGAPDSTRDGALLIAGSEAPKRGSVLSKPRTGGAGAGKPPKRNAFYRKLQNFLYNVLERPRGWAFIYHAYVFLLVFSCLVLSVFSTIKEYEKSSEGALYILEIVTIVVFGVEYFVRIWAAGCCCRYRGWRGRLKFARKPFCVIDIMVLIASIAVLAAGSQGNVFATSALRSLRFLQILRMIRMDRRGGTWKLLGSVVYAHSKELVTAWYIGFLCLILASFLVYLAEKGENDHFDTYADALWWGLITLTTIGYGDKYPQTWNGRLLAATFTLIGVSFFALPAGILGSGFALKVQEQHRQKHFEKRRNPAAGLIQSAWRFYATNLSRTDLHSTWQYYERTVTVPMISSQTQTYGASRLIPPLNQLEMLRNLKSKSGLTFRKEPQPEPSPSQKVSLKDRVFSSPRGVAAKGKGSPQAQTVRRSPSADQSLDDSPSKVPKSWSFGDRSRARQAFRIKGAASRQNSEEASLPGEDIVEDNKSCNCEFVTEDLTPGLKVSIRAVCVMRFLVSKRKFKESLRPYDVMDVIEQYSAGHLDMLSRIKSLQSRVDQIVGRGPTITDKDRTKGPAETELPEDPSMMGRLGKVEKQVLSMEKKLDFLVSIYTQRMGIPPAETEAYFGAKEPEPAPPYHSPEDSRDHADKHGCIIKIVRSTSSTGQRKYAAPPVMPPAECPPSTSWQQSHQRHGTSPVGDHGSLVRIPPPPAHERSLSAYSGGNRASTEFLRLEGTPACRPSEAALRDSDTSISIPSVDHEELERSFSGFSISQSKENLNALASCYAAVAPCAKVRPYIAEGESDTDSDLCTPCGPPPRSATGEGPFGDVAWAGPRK
KCNQ2 enhance baseline = second read-out of KCNQ2 enhance, no call of its own (marks repeat the call); B-score; compound at 10 µM; measured here: initial fluorescence intensity artifact check;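 brightness before thallium and not channel activity; 0 = typical well and far values either way flag optical interference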
* = called active by the depositor. The list is partial (hit frequency here may not be typical).

SMILES | KCNQ2 enhance | KCNQ2 enhance baseline
CC(=O)NC(Cc1cccc(F)c1)C(=O)NC1CCN(c2ncccc2[N+](=O)[O-])CC1 (centres undefined) | 0.79 | -1.4
COc1cc2c(cc1OC)CN(C(=O)c1ccc(S(=O)(=O)N3CCCCCC3)cc1)CC2 | 0.27 | -1.2
COc1cccc(CNC(=O)Cn2cc([N+](=O)[O-])cn2)c1 | 0.81 | -0.27
CCC1=C(OC(=O)N(CC)CC)N2C(=O)OC(=NCCc3c[nH]c4ccccc34)[C@]2(C)[C@H]2C1=CC[C@H]1C(=O)N(CC(=O)OC)C(=O)[C@H]12 | 0.39 | -0.04
COC(=O)CCN(c1ccccc1)S(=O)(=O)c1cc(-c2cc(C)no2)ccc1OC | 0.15 | 2
Cc1c(OCC(=O)OC(C)(C)C)ccc2c3c(c(=O)oc12)CCC3 | 0.53 | -1.3
CC(=O)c1cccc(NC(=O)CSc2ccc(-c3ccc4c(c3)OCO4)nn2)c1 | 0.13 | -0.96
CC(NS(=O)(=O)c1ccc(Br)cc1)C(=O)NCc1ccc2c(c1)OCO2 (centres undefined) | 0.42 | 0.19
N#C/C(=C\c1ccc(OCCN2CCOCC2)cc1)C(=O)Nc1ccccc1 | 0.84 | 0.26
Cc1cc(OCCn2cnc3ccccc3c2=O)cc(C(C)C)c1 | 0.29 | 2.1
O=C(Nc1ccno1)Nc1ccc(Cl)cc1Cl | 1.8 | 0.86
O=C(CSc1nnc(CNc2ccc(F)cc2)n1Cc1ccccc1)NCc1ccccc1 | 0.03 | -0.57
COc1cc(C(=S)N2CCOCC2)cc(OC)c1OC(=O)c1cc([N+](=O)[O-])cc([N+](=O)[O-])c1 | 0.24 | -1.8
COc1cc(CN2CCC(C(=O)N3CCC(C)CC3)CC2)cc(Br)c1O | 0.49 | -0.1
Clc1ccc(OCc2nnc(-c3ccccc3Br)o2)c(Cl)c1 | 0.85 | -0.9
C=CCN(CC=C)C(=S)NC(=O)c1ccc([N+](=O)[O-])cc1 | 7.2* | 0.99*
CCOC(=O)CSC1=C(C#N)C(c2ccc(C)s2)CC(=O)N1 (centres undefined) | 0.03 | -1.4
Cc1ccc(NC(=O)c2cc(=O)c3ccccc3o2)c(C)c1 | 0.55 | 0.31
Cc1cc(C(=O)CN2C(=O)NC3(CCC(C)CC3)C2=O)c(C)n1C (centres undefined) | 0.38 | 0.02
Cc1ccc(CS(=O)(=O)CCC(=O)NCCCN2CCCC2=O)cc1 | 0.21 | 0.13
CCN(CC(=O)Nc1ccc(NC(C)=O)cc1)C(=O)Cc1c(Cl)cccc1Cl | 0.21 | -0.02
CCOc1cccc(N(C(=O)c2ccco2)C(C(=O)NC2CCCC2)c2cccnc2)c1 (centres undefined) | 1.1 | 0.57
Cc1c(C(=O)NC2CC(=O)N(c3ccc4c(c3)OCCO4)C2)cccc1[N+](=O)[O-] (centres undefined) | 0.55 | 0.33
C=CCn1c(-c2ccc([N+](=O)[O-])cc2)n[nH]c1=S | 1.9 | 0.06
Cc1cc(C)cc(C(=O)NCC(=O)OCC(=O)Nc2cccnc2Cl)c1 | 1.1 | -0.34

Other compounds:
SMILES | KCNQ2 enhance | KCNQ2 enhance baseline
Cc1cc(NS(=O)(=O)c2ccc(-c3ccccc3)cc2)no1 | 0.53 | -0.96
CCc1ccnc(NC(=O)NS(=O)(=O)c2ccc(C)cc2)c1 | 0.66 | -1.3
N#Cc1c(N)oc(-c2cccs2)c1-c1cccs1 | 0.93 | 0.37
CN1CCN(c2nc(-c3cccs3)nc3ccccc23)CC1 | 0.27 | -0.22
O=C(CN1CCN(c2cccc(Cl)c2)CC1)Nc1nccs1 | 0.71 | 1.6
C/C(=N\NC(=O)Cc1cccn1C)c1cccs1 | 0.58 | 0.21
CCC(C)c1ccccc1NC(=O)COC(=O)c1ccc(C)c(NC(=O)c2ccco2)c1 (centres undefined) | 2 | -0.15
COc1cccc(C2CC(c3ccc(Cl)cc3)n3nc(N)nc3N2)c1 (centres undefined) | 0.52 | 3
CCc1nnc(NC(=O)CSc2nnc(CSc3nc(C)cc(C)n3)n2C)s1 | 0.31 | -1.5
COc1ccc([N+](=O)[O-])cc1N(CC(O)CN(C)C)S(=O)(=O)c1ccc(C)cc1 (centres undefined) | 0.77 | 0.57
CC1(C)CC(=O)C(C(N)=NC(=O)c2ccc([N+](=O)[O-])cc2)=C(O)C1 | 0.97 | 0.05
COc1cccc(OC)c1NC(=O)NC(=O)c1c(OC)c(Br)cc([N+](=O)[O-])c1OC | 0.4 | -0.15
CCc1nnc(NC(=O)CSc2nccn2-c2cccc(C)c2C)s1 | 0.31 | -0.23
Nc1cc(-c2ccc(OC(F)(F)F)cc2)nn1-c1ccc(Cl)c(Cl)c1 | 0.6 | -0.83
COc1ccc(N2C(=O)c3ccccc3NC23CCCC3)cc1 | 0.74 | 0.19
COCc1cc(=O)n2[nH]c(C)c(-c3ccccc3)c2n1 | 0.13 | 0.07
Cc1cccc(C(=O)O/N=C2\CCSc3ccc(C)cc32)c1 | 0.64 | -0.01
CC(=O)Nc1ccc(S(=O)(=O)NC2CC(=O)N(c3ccc4c(c3)OCCO4)C2)cc1 (centres undefined) | 0.13 | 2.7
O=C(Nc1ccc(Br)cc1F)C1CCCO1 (centres undefined) | 1.7 | 0.01
O=C(CSc1n[nH]c(-c2cccnc2)n1)Nc1ccc(Cl)cc1 | 0.09 | 0.26
O=C1CCCN1CC(=O)N1CCCC(N2CCN(c3cccc(Cl)c3)CC2)C1 (centres undefined) | 0.05 | -0.38
CC(C(=O)NCc1cccs1)N1C(=O)c2ccccc2C1=O (centres undefined) | 0.14 | 0
Clc1ccc(-c2c[nH]c3ccccc23)nn1 | 0.77 | 0.55
Cc1ccc(S(=O)(=O)NCCC(=O)N2CCN(Cc3ccccc3)CC2)cc1 | 1.8 | -0.44
O=C(C1CCCN1S(=O)(=O)c1cccc2cccnc12)N1CCN(c2ccccc2)CC1 (centres undefined) | 0.87 | -0.52

Continuation.
SMILES | KCNQ2 enhance | KCNQ2 enhance baseline
COc1ccc(-c2nc3nc(C)c(Cc4ccccc4)c(=O)n3[nH]2)cc1 | 0.22 | 0.22
Cc1cccc(NCc2ccccc2)c1 | 0.38 | 0.34
COc1ccccc1N1CCN(/N=C/c2ccc(O)cc2O)CC1 | 1.5 | -0.46
CC(C)CN1C(=O)C(=O)N(CC(=O)Nc2cc(Cl)ccc2Oc2ccccc2)C1=O | 2.8 | -0.02
COc1ccc(-c2noc(CNS(=O)(=O)c3ccc(NC(C)=O)cc3)n2)cc1 | 0.02 | -0.41
O=C(Nc1ccc(F)cc1)c1cc2ccccc2o1 | 0.05 | 1.7
CCN(CC(=O)NCc1ccc(Cl)cc1)C(=O)Cc1ccc(OC)cc1 | 1.1 | 1.1
Cn1nccc1C(=O)N1CCOCC1 | 0.42 | 1.4
O=C(CSc1nnc(CNC(=O)c2ccco2)o1)Nc1ccccc1F | 0.13 | 0.68
CC(=O)Nc1ccc2nc(-c3cccs3)[nH]c2c1 | 0.96 | -0.53
CCN(CC)C(=O)c1ccc(COc2ccccc2Cl)o1 | 0.03 | -0.14
CCOc1ccc(NS(=O)(=O)c2cc(OC)ccc2OC)cc1 | 0.12 | -0.52
COc1ccc2cc(CN(CC3CCCO3)S(=O)(=O)c3ccc(C(C)=O)cc3)c(=O)[nH]c2c1 (centres undefined) | 1.5 | -0.36
O=C(CSc1nc2c(c(=O)n1-c1ccc(Br)cc1)SCC2)NCC1CCCO1 (centres undefined) | 1.7 | 0.64
O=C1C(Cc2ccc(O)cc2)NC(=S)N1c1ccccc1 (centres undefined) | 0.04 | -0.08
Cc1ccc(C)n1-c1ccc(C(=O)/C=C/N(C)C)cc1 | 0.07 | 0.1
Cc1ccc(NC(=O)C2CCCNC2=O)nc1 (centres undefined) | 1.8 | -0.82
Cc1ccc(-c2ccc(CCC(=O)O)n2C(C)C)cc1 | 0.07 | 1
COc1ccc(C(=O)Nc2ccc(S(=O)(=O)N3CCCC3)cc2)cc1 | 1.6 | -1.5
O=C(c1ccc(F)cc1)C1CCN(C(=O)c2ccccc2F)CC1 | 0.55 | -0.73
COc1cc2c(=O)n(CCCC(=O)NCC3CCCO3)c(=O)n(CC(=O)c3ccc(F)cc3)c2cc1OC (centres undefined) | 0.13 | -0.21
COC(=O)Nc1ccc2c(c1)Nc1ccccc1CC2 | 0.86 | -0.38
O=C(NCCCO)NC12CC3CC(CC(C3)C1)C2 | 0.01 | -0.47
CCn1ccc2cc(OC)ccc2c1=S | 0.3 | 0.67
O=C(CSc1ccc(-c2ccc(F)cc2)nn1)Nc1ccc2c(c1)OCCO2 | 0.62 | -0.23

Going on with the list:
SMILES | KCNQ2 enhance | KCNQ2 enhance baseline
CCOC(=O)CNC(=O)CSc1nnc(NC(=O)c2ccccc2Cl)s1 | 0.25 | -3
COc1ccccc1CNc1nc2nc(C)c(C)c(=O)n2[nH]1 | 1.6 | -1.4
COc1cccc(C(N)=O)c1OC(=O)Cc1ccccc1F | 0.63 | -1.5
Cc1ccn(CC(=O)NC2CCCN(Cc3ccc(CC(C)C)cc3)C2)n1 (centres undefined) | 1.2 | 1.3
CCCCNC(=S)N(CCN(C)C)Cc1cc2cc3c(cc2[nH]c1=O)OCCO3 | 0.02 | -0.22
CCCCc1c(C)c2cc(C)ccc2[nH]c1=O | 2.3 | 1.5
O=C(N/N=C/c1cc([N+](=O)[O-])ccc1O)c1ccc(COc2ccc3c(c2)CCC3)o1 | 1.2 | -1
CCOC(=O)c1nc2ccccc2s1 | 0.02 | 1.4
CCOC(=O)N1CCN(C(=O)CN2C(=O)COc3ccc(C(C)(C)C)cc32)CC1 | 0.08 | -1.5
O=C(CC(=O)Nc1ccc(Br)cc1)Nc1ccc(Br)cc1 | 0.53 | 0.91
CC(C)(C)NC(=O)/C(=C/c1cccnc1)NC(=O)c1ccco1 | 1.7 | 2.2
Cc1ccc(/C=N/NC(=O)c2ccoc2C)s1 | 1 | -1.5
COc1ccc2nc3ccccc3nc2c1NC(=O)c1ccc(Br)cc1 | 1.2 | -1.1
Cc1cccc(C)c1NC(=O)Cn1nc(-c2ccc(Cl)s2)ccc1=O | 0.08 | 2.2
Cc1nn2c(=O)c3c4c(sc3nc2n1-c1ccccc1)COC(C)(C)C4 | 1 | -1.2
CCCCN(CC)CCCNC(=O)c1ccc(CS(=O)(=O)c2c(Cl)cccc2Cl)o1 | 0.01 | 0
COc1ccc(OC)c(NC(=O)NCCCCc2ccccc2)c1 | 1.1 | 0.18
COc1cccc(CNC(=O)CCS(=O)(=O)c2ccc3c(c2)CC(C)N3C(=O)C2CC2)c1 (centres undefined) | 1.7 | -0.18
COc1ccc(C(=O)O)cc1S(=O)(=O)Nc1ccccc1Cc1ccccc1 | 0.01 | 0.22
COc1ccccc1NC(=O)Cc1csc(NC(=O)c2ccccc2)n1 | 0.37 | 1.5
CC(C)=CCCC(C)CN1CCC(N2CCC(C(=O)NC(C)C)CC2)CC1 (centres undefined) | 1.4 | -0.42
N#Cc1c(C(F)(F)F)cc(-c2ccc(Cl)cc2)[nH]c1=O | 6.5* | 1.5*
CN1C(=O)NC(c2cccc([N+](=O)[O-])c2)C2=C1CC(C)(C)CC2=O (centres undefined) | 0.8 | -1.8
CC(C)CC(=O)NNC(=O)c1ccc(Cl)cc1 | 0.69 | 0.1
COc1cc2c(cc1OC)C(c1ccc(Cl)cc1)=NCC2 | 0.68 | -0.61

The list goes on:
SMILES | KCNQ2 enhance | KCNQ2 enhance baseline
Cc1nc2ccc(NC(=O)c3cncc(Br)c3)cc2s1 | 1.7 | 0.45
O=C(NC1CCC(=O)N(CCOc2ccccc2)CC1)OCc1ccccc1 (centres undefined) | 0.34 | -0.82
CC(C)Cc1nnc(NC(=O)CCC(=O)NCCc2ccc(Cl)cc2)s1 | 0.66 | -0.45
CCC(c1nnnn1Cc1ccc2c(c1)OCO2)N1CCN(CC)CC1 (centres undefined) | 0.75 | -0.39
Nc1ccc(Nc2ccncc2[N+](=O)[O-])cc1 | 1.5 | -0.86
COC(=O)Cc1c(O)ccn(CCc2ccc(OC)c(OC)c2)c1=O | 2.7 | -1.1
COc1ccc(CC(CC(=O)O)C(=O)Nc2ccc(OC)cc2)cc1 (centres undefined) | 1.7 | -1.9
CN(CC(=O)NCc1ccc(Cl)cc1)S(=O)(=O)c1cccc2cccnc12 | 0.34 | -1.1
CCOC(=O)c1c(C)[n+]([O-])c2ccc3c(non3O)c12 | 0.06 | 0.12
N#Cc1ccc(N2Cc3ccccc3/C2=N/C(=O)Nc2ccc(Cl)cc2)cc1 | 0.06 | 3
